Source: PubChem
Mtb betalactam: beta-lactam sensitization of Mtb H37Rv, H37Rv | 0.27% of 330,000 active | M. tuberculosis H37Rv growth with meropenem, percent inhibition; hits of this screen are not shown here | inhibition, % at 25 µM;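 active = about 74% or more and at least 40 points above the plate without the antibiotic, then above 30% in a dose series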;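 also: growth measured after seven days incubation then overnight dye step; 0% = bacteria only wells and 100% = bacteria with antibiotic; twin plates without the antibiotic show which effects depend on it; some results filed as inactive read as strong as hits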
Numbers without * were called inactive.

structure,Mtb betalactam
COc1cc(NC(=O)COC(=O)c2[nH]c(C)c(C(C)=O)c2C)cc(OC)c1,7.1
CCCCOc1ccc(C(=O)NCC(=O)NCC(c2ccc(OC)cc2)N2CCOCC2)cc1 (centres undefined),0.2
COc1ccc(C(=O)N[C@H](C(=O)NCCCn2nc(C)cc2C)C(C)C)cc1,-1.9
CC1CCN(C(=O)CNC(=O)c2ccc(Br)o2)CC1,2.2
O=S(=O)(c1ccc2c(c1)CCN2)N1CCOCC1,-4.9
C[C@H](CO)N1C[C@H](C)[C@@H](CN(C)S(=O)(=O)c2ccc(F)cc2)Oc2ccc(NS(=O)(=O)c3ccccc3)cc2C1=O,-2.7
Cc1ccc(S(=O)(=O)N2[C@@H](c3cccc(Cl)c3)C(C(=O)O)=CC[C@H]2c2cccc(Cl)c2)cc1,-3.3
Cc1cccc(CCN2CCN=C2N(C)C)c1,-6.5
CC(C)(O)/C=C/C(=O)[C@](C)(O)C1[C@H](O)C[C@@]2(C)C3CC=C4C(C=C(O[C@@H]5O[C@H](CO)[C@@H](O)[C@H](O)[C@H]5O)C(=O)C4(C)C)[C@]3(C)C(=O)C[C@]12C (some centres undefined),-9.0
NC(=O)c1ccc(-c2nnn(CC(=O)N(C3CCCCC3)C3CCS(=O)(=O)C3)n2)cc1 (centres undefined),-3.3
Cc1n[nH]c(=O)c2c(NC(=O)CSc3nncn3C(C)C)oc(C)c12,-3.8
COc1ccc(NC(=O)CN(C)CC(=O)NC2CCCCC2C)cc1 (centres undefined),-2.1
CC(C)C(NC(=O)c1ccccc1)C(=O)OCC(=O)N1CCN(c2ccccc2)CC1 (centres undefined),-2.7
Cc1cccc(C(=O)OC(C)C(=O)N2CCc3ccccc3C2)c1C (centres undefined),-1.9
CCOC(=O)[C@H]1[C@H]2COc3ccc(C)cc3[C@@H]2N2C(=O)CN(Cc3ccccc3)C(=O)[C@@]12C,-1.6
CCCn1c(SCC(=O)Nc2cccc(F)c2)nc(O)cc1=O,-12.4
COc1cc(C#Cc2c(-c3cncn3C)n(C)c3ccc(-c4ccc(OC)c(OC)c4)cc23)cc(OC)c1,99.9
Nn1c(SCC(=O)NCCc2ccc(S(N)(=O)=O)cc2)nnc1C1CCCCC1,-2.5
O=C1NC(Cc2ccc(O)cc2)c2nc3cc(F)ccc3c(=O)n2-c2cc(Cl)ccc21 (centres undefined),-2.5
COc1ccccc1C(=O)NCCC(=O)NCC1CCCO1 (centres undefined),2.1
N#Cc1nc(-c2cccc3ccccc23)oc1N,-4.2
CCCc1cc(=O)[nH]c(SCC(=O)Nc2cc(S(=O)(=O)N3CCOCC3)ccc2N(CC)CC)n1,-9.8
Cc1ccc(S(=O)(=O)N(C)c2ccc(OC(=O)c3cccs3)cc2)cc1C,5.1
NCCCCCNC(=O)c1nc[nH]c1C(=O)NCC(=O)OCc1ccccc1,-6.6
COc1cc(C#Cc2c(-c3cncn3C)n(C)c3ccc(Br)cc23)cc(OC)c1,100.0

Rewritten as labelled records: part of the list above.
COc1ccc(NC(=O)CN(C)CC(=O)NC2CCCCC2C)cc1 (centres undefined)
- Mtb betalactam: -2.1
C[C@H](CO)N1C[C@H](C)[C@@H](CN(C)S(=O)(=O)c2ccc(F)cc2)Oc2ccc(NS(=O)(=O)c3ccccc3)cc2C1=O
- Mtb betalactam: -2.7

In the list so far, 4 have two or more sulfur atoms.
structure,Mtb betalactam
C[C@H](CO)N1C[C@H](C)[C@@H](CN(C)S(=O)(=O)c2ccc(F)cc2)Oc2ccc(NS(=O)(=O)c3ccccc3)cc2C1=O,-2.7
Nn1c(SCC(=O)NCCc2ccc(S(N)(=O)=O)cc2)nnc1C1CCCCC1,-2.5
CCCc1cc(=O)[nH]c(SCC(=O)Nc2cc(S(=O)(=O)N3CCOCC3)ccc2N(CC)CC)n1,-9.8
Cc1ccc(S(=O)(=O)N(C)c2ccc(OC(=O)c3cccs3)cc2)cc1C,5.1

The listing continues.
structure,Mtb betalactam
COc1ccc(Cl)cc1NC(=O)C(C)Sc1nnc(C2CC2)n1C1CC1 (centres undefined),-1.0
CC(NC(=O)CSc1nnnn1C1CC1)c1ccccc1Br (centres undefined),6.7
CC(C)c1c(CN(C)C(C)Cc2ccccc2)n(C)n(-c2ccccc2)c1=O (centres undefined),0.7
CCCCC1CCC(C(=O)N(CC(C)C)c2c(N)n(Cc3ccccc3)c(=O)[nH]c2=O)CC1 (centres undefined),-4.5
CC(C)CC1NC(=O)c2ccc(Cl)cc2-n2c1nc1ccc(F)cc1c2=O (centres undefined),2.5
Cc1cc(NC(=O)COC(=O)c2c(Cl)cccc2Cl)no1,5.9
CN(C)S(=O)(=O)c1cccc(NC(=O)c2cc([N+](=O)[O-])ccc2N2CCCCC2)c1,-13.2
CCOC(=O)C1=C(COC(=O)CSc2ccc(C)cc2)NC(=O)NC1C (centres undefined),0.8
Cn1c2ccccc2c(=O)c2ccc(NCCc3cccs3)cc21,90.5
CCN(c1ccccc1)S(=O)(=O)c1cc(C(=O)OC2CCOC2=O)ccc1C (centres undefined),-4.5
Cc1ccnc(NC(=O)c2cc(S(=O)(=O)NCc3ccccc3)ccc2C)c1,-11.7
Cc1ccccc1C(=O)NCC(=O)OC(C)C(=O)NC(C)CCc1ccccc1 (centres undefined),4.0
CCC(=O)N1CCN(c2ccc(NC(=O)COc3ccc(C)cc3C)cc2)CC1,86.6
CCN(C(=O)COC(=O)c1c(C)nsc1NC)c1ccccc1,-5.5
N#CCC(=O)Nc1ccc(C(=O)Nc2cccnc2)cc1,-4.0
O=C(COC(=O)c1ccc[n+]([O-])c1)Nc1ccc(Cl)cc1[N+](=O)[O-],-8.7
CSc1ncccc1C(=O)OCC(=O)Nc1ccc2c(c1)CCC2,0.6
COc1ccc(CC(=O)Nc2ccccc2C(=O)NCCc2ccccc2)cc1,0.3
O=C(NCCN1CCCCC1)Nc1ccc([N+](=O)[O-])cc1,-1.3
O=C(CN1C(=O)NC2(CCCC2)C1=O)NCc1ccc(Cl)cc1,2.4
O=C(CN1CCN(C(=O)c2ccccc2)CC1)NC(=O)NCCC1=CCCCC1,-2.5
Cc1ccc(NC(=O)CN2C(=O)C(=O)N(C3CCCC3)C2=O)c(Cl)c1,9.5
Cc1ccc(S(=O)(=O)NC(=O)Nc2c(C)cccc2C)cc1,-5.5
COc1ccc(CNC(=O)COC(=O)CN2C(=O)C3CC=CCC3C2=O)cc1 (centres undefined),-0.6
Cc1ccccc1C(=O)OCC(=O)Nc1cccc(S(=O)(=O)NC2=NCCC2)c1,-8.2

(further entries)
structure,Mtb betalactam
CCCCCCCN1CCN=C1Nc1ccccc1,-2.7
COc1ccccc1C(=O)NCC(=O)OCC(=O)NNC(=O)c1ccc(Br)cc1,-7.5
Nc1c(C(=O)CSc2nncn2-c2ccccc2)c(=O)[nH]c(=O)n1C1CC1,-2.7
Cc1ccc(S(=O)(=O)N2CCCCC2)cc1NC(=O)c1cccs1,-8.0
O=C(CN1CCN(C(=O)COc2cccc(F)c2)CC1)Nc1ccc(Cl)c(C(F)(F)F)c1,53.9
CCOc1ccc(S(=O)(=O)/N=C(/Nc2ccc(C)c(S(=O)(=O)N3CCOCC3)c2)c2ccccc2)cc1,-1.7
C[C@@]12CCC3[C@@](CCC4[C@@]3(C)CCC[C@@]4(C)C(=O)N3CCCCC3)(CC1=O)C2 (some centres undefined),-2.2
CCCCCn1c(=O)[nH]c2cc(C(=O)N3CCN(C(=O)OCC)CC3)ccc2c1=O,2.0
CCCNc1nc2c(c(=O)n(C)c(=O)n2C)n1CCCc1ccccc1,-9.5
Cc1ccc(C(=O)OCC(=O)N2CCCCCC2)cc1S(=O)(=O)N1CCOCC1,-8.0
Cc1cccc(OCC(=O)NNC(=O)CCN2CCN(c3ccccc3)CC2)c1C,-6.4
Nc1ncnc2c1ncn2[C@@H]1O[C@H](CNCc2ccc(OCc3ccccc3)cc2)[C@@H](O)[C@H]1O,-1.1
Nc1c(N(Cc2ccco2)C(=O)c2cccc(Cl)c2)c(=O)[nH]c(=O)n1Cc1ccccc1,-6.6
CSCc1c(C(=O)OCC(=O)NC2CCCCC2)oc2ccccc12,6.4
Cc1ccccc1C(=O)NC1CCN(CC(=O)Nc2ccc(Br)cc2)CC1,22.3
O=S(=O)(NC1CCN(S(=O)(=O)c2c(F)cccc2F)C1)c1ccc2c(c1)OCCO2 (centres undefined),1.8
CC(=NNC(=O)c1ccc(NS(=O)(=O)c2ccc(Br)cc2)cc1)c1cccnc1,5.0
CCC(CO)Oc1cc(NC(=O)c2cccc(C)c2)c2ncn(C(C)C)c2c1 (centres undefined),-6.1
Cc1ccc(S(=O)(=O)N2CCN(c3ncnc4ccccc34)CC2)cc1,-4.2
COc1ccc(-n2c(C)cc(C(=O)COC(=O)c3ccc(O)cc3O)c2C)cc1,80.9
O=C(NC(CC(=O)N1CCN(c2ccccc2O)CC1)c1ccccc1)c1ccccc1Cl (centres undefined),-3.4
Cc1ccc(NC(=O)CCCNC(=O)c2ccc(Cl)cc2)cc1S(=O)(=O)N1CCOCC1,4.0
COc1cccc(OC)c1C(=O)OCC(=O)NC1CCCCCC1,72.0
Cc1ccc([C@H]2C(C(=O)O)=CC[C@@H](c3ccc(Cl)cc3)N2S(=O)(=O)c2ccccc2C)cc1,6.4
CCCN1CCO[C@@H]2c3cc(O)ccc3OC[C@H]21,1.6

Continued.
structure,Mtb betalactam
Cc1ccc(N)c(N)c1,-3.7
O=C(Nc1ccc(C2=CN(Cc3ccccc3)CCC2=O)cc1)OCc1ccccc1,1.7
COc1cc(OC)cc(-c2c(C#Cc3ccsc3)c3cc(-c4ccc5c(c4)OCO5)ccc3n2C)c1,-1.1
CCOc1ccc(S(=O)(=O)Nc2ccc(C(=O)NCC(c3ccc(OC)cc3)N3CCOCC3)cc2)cc1 (centres undefined),-6.1
O=C(c1cccc(S(=O)(=O)Nc2ccc(F)cc2)c1)N1CCOCC1,-7.7
CCCCn1c(O)c(N=Nc2ccccc2O)c2ccccc21,91.3
CC1CCN(C(=O)c2[nH]cnc2C(=O)N(C)Cc2ccccc2)CC1,-3.0
O=C(CN1C(=O)NC2(CCCCCCC2)C1=O)NCc1ccc(F)cc1,3.1
COC(=O)C1=C(C)N(Cc2ccccc2)C(=S)N[C@H]1c1cccc(C(F)(F)F)c1,-0.1
CC(=O)Nc1ccc(S(=O)(=O)N2CCn3cccc3C2C)cc1 (centres undefined),-9.8
CC(C#N)Sc1ccc(S(=O)(=O)N2CCCCC2)cn1 (centres undefined),-1.5
CC1CCCC(NC(=O)COC(=O)c2cn(C)c3ccccc23)C1C (centres undefined),-2.7
CS(=O)(=O)c1ccc(C(=O)NNC(=O)c2ccccc2-n2cccc2)cc1,-9.2
CCN(C(=O)CSc1n[nH]c(N)n1)c1cccc2ccccc12,2.1
Cc1cc([N+](=O)[O-])nn1CC(=O)NC(C)c1ccccc1 (centres undefined),3.7
CN(C(=O)CSc1ncnc2sccc12)c1c(N)n(Cc2ccccc2)c(=O)[nH]c1=O,-1.1
CC(OC(=O)CCN1C(=O)C2CC=CCC2C1=O)C(=O)c1ccc(F)cc1 (centres undefined),-8.6
CCOC(=O)[C@H]1[C@H]2COc3ccc(Br)cc3[C@@H]2N2C(=O)[C@H](C)NC(=O)[C@@]12C,-1.4
C[C@H](CO)N1C[C@H](C)[C@@H](CN(C)C(=O)NC2CCCCC2)Oc2c(cccc2N(C)C)C1=O,4.0
CC12CCC(=O)N1C(C(=O)NNC(=O)c1ccc(Cl)cc1)CS2 (centres undefined),4.0
CCN(C(=O)COC(=O)c1oc2ccccc2c1C)c1c(N)n(Cc2ccccc2)c(=O)[nH]c1=O,60.1
O=C(CNS(=O)(=O)c1cccc(C(F)(F)F)c1)NC1CCCCCC1,-5.8
CCN1CCN(c2ccc(NC(=O)c3cccc(S(=O)(=O)N4CCCC4)c3)cc2)CC1,-0.5
C/C(=C(/CCO)SSCC1CCCO1)N(C=O)Cc1cnc(C)nc1N (centres undefined),-2.9
COc1ccc(C(=O)OCc2cc(C)ccc2C)cc1S(=O)(=O)N1CCCC1,-5.5

(list continues)
structure,Mtb betalactam
CCCN(CC(=O)Nc1ccccc1C)C(=O)Cc1cccs1,-2.9
CSc1nc(N)nc2c1ncn2CC(=O)NCCCN1CCCC1=O,6.1
O=C(COC(=O)c1ccccc1O)Nc1ccc(N2CCOCC2)cc1,1.7
CCC1(c2ccc(F)cc2)NC(=O)N(CC(=O)N2c3ccccc3NC(=O)CC2C)C1=O (centres undefined),6.5
CS(=O)(=O)N1CCN(C(=O)CCc2ccccc2)CC1,-11.2
COc1ccc(C(C)(C)C)cc1NC(=O)COc1ccc(-c2nnco2)cc1,27.5
CCN(C(=O)CSc1nnnn1-c1ccc(OC)cc1)C1CCS(=O)(=O)C1 (centres undefined),3.2
O=C(COC(=O)c1ccc([N+](=O)[O-])o1)Nc1ccc(F)cc1,64.3
Cc1noc(C)c1COc1ccccc1C(=O)NCCOc1ccccc1F,43.1
COc1ccc([C@H]2CC(=O)C=C(c3ccc(OC(F)(F)F)cc3)C2)cc1OC,70.2
CN(Cc1nc2ccccc2c(=O)[nH]1)C(=O)c1ccccc1OCc1ccc(Cl)cc1,6.2
CC(=O)Nc1sc(C)c(C)c1C(=O)OCC(=O)Nc1cccc(C)c1,-5.8
O=C(c1cc(-c2cccnc2)nc2ccccc12)N1CCN(S(=O)(=O)c2cccs2)CC1,-2.1
Cc1cc(Cl)ccc1OCC(=O)Nc1cccc(S(=O)(=O)N2CCCC2)c1,-13.8
CC(C)(C)c1ccc(C(=O)NCCC(=O)Nc2cc(Cl)ccc2N2CCOCC2)cc1,7.7
COC(=O)c1ccc(CNC(=O)c2cc(COc3cncc(Cl)c3)on2)cc1,75.2
COc1ccc(S(=O)(=O)N2CCN(C)CC2)cc1,-13.0

A portion of the library, so the mix of outcomes need not match the whole.
